Source: PubChem (National Center for Advancing Translational Sciences (NCATS))
VDR inhibitor = blocks the human vitamin D receptor | P11473 | VDR-SRC2-3 peptide fluorescence polarization, 2 h | Potency, µM, for inactives: max response, negative = inhibition, actives largely listed as inhibitors | 0.93% of 400,000 active; active means well fitted inhibition curve with a large enough effect; inconclusive means small, poorly fitted or top-dose-only effect, or another doubt; inactive means no such curve, though single readings can be large or run the other way; further: series mostly up to about 120 µM
Target sequence (P11473 whole entry, looked up): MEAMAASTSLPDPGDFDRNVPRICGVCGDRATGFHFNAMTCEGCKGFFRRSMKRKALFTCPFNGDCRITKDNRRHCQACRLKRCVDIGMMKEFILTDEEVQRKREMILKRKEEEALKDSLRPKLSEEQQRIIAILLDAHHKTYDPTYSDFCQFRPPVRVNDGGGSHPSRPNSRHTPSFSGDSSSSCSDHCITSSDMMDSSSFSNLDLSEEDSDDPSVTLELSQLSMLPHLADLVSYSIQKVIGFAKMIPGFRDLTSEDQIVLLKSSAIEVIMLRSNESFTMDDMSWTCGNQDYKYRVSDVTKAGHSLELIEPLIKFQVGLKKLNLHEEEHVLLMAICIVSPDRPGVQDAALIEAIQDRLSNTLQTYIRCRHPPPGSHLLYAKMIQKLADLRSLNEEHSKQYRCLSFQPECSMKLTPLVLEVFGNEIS
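Fluorescence polarization assay of small-molecule disruption of VDR binding to coregulator peptide SRC2-3. Compounds and controls pin-transferred, then read after 2 h incubation at ambient room temperature.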
An asterisk follows results filed as active; ? = inconclusive. On the % scale 0 is the no-effect control and ±100 the full control effect; potency means the concentration at half of the fitted maximal effect. Some of the compounds tested (hit frequency here may not be typical).

SMILES	VDR inhibitor
CCCCc1nc(SCC(=O)N2CCCCC2)c2c(=O)n(C)c(=O)n(C)c2n1	?
CCOc1ccccc1N(CC(=O)Nc1ccccc1C(=O)N1CCCC1)S(C)(=O)=O	6%
COc1ccc(S(=O)(=O)NCCSCc2cccc(C)c2)cc1Br	25%
Cc1cc(Cl)ccc1NC(=O)c1ccc2c(c1)OCO2	-20%
COc1cc(OC)c(C(=O)COc2ncnc3ccccc23)c(OC)c1	-3%
Cc1ccc(C(=O)Cn2nc(C)c([N+](=O)[O-])c2C)c(C)c1	-4%
O=C(Nc1ccc(Cl)cc1)OCc1cc(-c2ccccc2Cl)on1	-9%
Cc1c(C(=O)N(C)CC(=O)Nc2cccc(F)c2)oc2c(Cl)cccc12	-8%
CCc1ccc2oc(=O)cc(CN(C)Cc3ccccc3)c2c1	-5%
O=C(NCCc1cn2ccccc2n1)C1CCCCC1	-3%
CC(=O)c1ccc(N2CCN(S(=O)(=O)c3c(C(=O)N4CCCC4)c(C)n(C)c3C)CC2)cc1	-2%
CCOC(=O)N1CCC(NC(=O)c2ccc(CS(=O)(=O)c3c(Cl)cccc3Cl)o2)CC1	-8%
COc1ccc(CCNc2ccc(S(=O)(=O)N3CCN(C)CC3)cc2[N+](=O)[O-])cc1	10%
Cc1cc(=O)oc2c(C)c(OC(=O)c3ccco3)ccc12	-4%
Cc1cccc(N2CCN(Cc3nc(C4CC4)no3)CC2)n1	-7%
COc1ccc(NC(=O)c2cccs2)c([N+](=O)[O-])c1	-11%
O=C(Nc1ccc(Cl)cn1)c1ccc([N+](=O)[O-])o1	-10%
CCOC(=O)CSc1nnc(Cn2nnc3ccccc32)n1-c1ccc(F)cc1	10%
CC(C)c1ccc(NC(=O)C2CCN(S(C)(=O)=O)CC2)cc1	-5%
CC12CN(C(=S)Nc3ccccc3)CC(C)(CN(C(=S)Nc3ccccc3)C1)C2=O	-20%
Cc1cc(C)n(/N=C/c2ccco2)c(=O)c1C#N	17%
N#CC1(Nc2ccc(-c3ccc(NC4(C#N)CCCC4)cc3)cc2)CCCC1	5%
COc1ccc(C(=O)N2CCN(C(C)=O)CC2)cc1S(=O)(=O)NCc1ccc(Cl)cc1	-8%
Cc1ccc(OCC(=O)NCCO)c(Br)c1	8%
CCOC(=O)N1CCC(NC(=O)C2CCN(S(=O)(=O)N3CCCC3)CC2)CC1	11%

The closing 2 records of the section before come first, to join the parts:
SMILES	VDR inhibitor
Cc1ccc(OCC(=O)NCCO)c(Br)c1	8%
CCOC(=O)N1CCC(NC(=O)C2CCN(S(=O)(=O)N3CCCC3)CC2)CC1	11%
Cc1ccc(NC(=O)CCC(=O)NNS(=O)(=O)c2ccc(Cl)cc2)cc1C	-8%
Cc1noc(C)c1C(=O)NCc1cccs1	0%
O=C(CN1C(=O)NC2(CCCC2)C1=O)Nc1ccc(F)c(F)c1F	-1%
O=C(NCC1CCCO1)c1ccc(-c2cccc(C(F)(F)F)c2)o1 (centres undefined)	-1%
Cn1c(SCc2cc(=O)[nH]c3ccccc23)nnc1-c1ccc(Br)cc1	-6%
Cc1ccc2nc(COC(=O)c3ccc(Cl)nc3)cc(=O)n2c1	-6%
COc1ccccc1-c1nnc(SCC(=O)Nc2ccc3[nH]c(=O)[nH]c3c2)n1N	-14%
Cc1cc(C)c(S(=O)(=O)N2CCCC(C(=O)N3CCOCC3)C2)c(C)c1 (centres undefined)	3%
COc1ccc(-c2csc(Cc3nnc4n3CCCCC4)n2)cc1	1%
COC(=O)C(=C/C(C)=C/c1cccnc1)C(=O)OC	?
CCN(CC)c1ccc(S(=O)(=O)N2CCOCC2)cc1NC(=O)COC(=O)/C=C/c1ccco1	13%
Cc1ccc(S(=O)(=O)N2CCCC(C(=O)NCc3ccccc3F)C2)cc1 (centres undefined)	-5%
COC(=O)c1c(C)[nH]c(C(=O)OCC(=O)N(CC(C)C)c2c(N)n(Cc3ccccc3)c(=O)[nH]c2=O)c1C	2%
Cn1c(=O)oc2cc(S(=O)(=O)N3CCC4(CC3)OCCO4)ccc21	-5%
Cc1ccc(S(=O)(=O)N(C)C)cc1NC(=O)Nc1ccccc1	-8%
CC(=O)N1c2ccc(C)cc2C(c2ccccc2)CC1C (centres undefined)	4%
CSCCC(NC(=O)c1ccco1)C(=O)Nc1cc(C)ccn1 (centres undefined)	10%
CN(C)S(=O)(=O)c1cccc(NC(=O)COC(=O)c2ccc([N+](=O)[O-])o2)c1	-7%
Cc1nnc(SCC2=C(C(=O)O)N3C(=O)C(NC(=O)Cn4nc(C(F)F)cc4C)C3SC2)s1 (centres undefined)	-36%
Cc1ccccc1-c1cc(C(=O)O)n(CC2CC(c3cccnc3)=NO2)n1 (centres undefined)	-20%
CCOc1ccc(NC(=O)c2cnn(-c3ccc(C)c(C)c3)c2C2CCN(C(=O)OC(C)(C)C)CC2)cc1	-8%
COc1ccc2c(c1)OC(=O)CC2c1ccccc1OC (centres undefined)	?
CN(C)CCN(C(=O)c1ccc2ccccc2c1)c1nc2c(F)cccc2s1	-12%
COc1ccc(CCN2CC(C(=O)N(C)CC(=O)Nc3cccc(F)c3)CC2=O)cc1OC (centres undefined)	-6%
CCc1onc(C)c1C(=O)Nc1ccc2c(c1)OCO2	-18%

Next section:
SMILES	VDR inhibitor
CNS(=O)(=O)c1cccc(C(=O)OCC(=O)N(CCC#N)c2ccccc2)c1	-14%
CCCc1cc(=O)oc2cc(OCC(=O)Nc3ccc(CN4CCOCC4)cc3)c(Cl)cc12	-12%
O=C(Cc1ccccc1)NCc1nc2ccccc2[nH]1	3%
O=C(NCc1ccccn1)C1CCN(S(=O)(=O)c2cc(Cl)ccc2Cl)CC1	-4%
O=c1[nH]cnc2scc(-c3cccs3)c12	5%
CC1CC2(CCCC2)Nc2ccc(F)cc21 (centres undefined)	-9%
COc1ccc(OC)c(C2NC(=S)NC3=C2N2CCC3CC2)c1 (centres undefined)	-26%
CC(=O)Nc1ccc(NC(=O)[C@@H](NC(=O)N2C[C@H]3C[C@@H](C2)c2cccc(=O)n2C3)C(C)C)cc1	-13%
O=C(CSc1nnc(-c2ccccc2)n1Cc1ccco1)NCc1ccc2c(c1)OCO2	-1%
CCOc1ccc(C(=O)N/N=C(/C)C2C(=O)c3ccccc3C2=O)cc1	-17%
Cc1cccc(Cn2c(=O)n(Cc3ccc(C(=O)NC4CCN(Cc5ccccc5)CC4)cc3)c(=O)c3ccccc32)c1	10%
CCC1CCc2sc(C(=O)NCC(c3ccc(OC)cc3)N3CCOCC3)cc2C1 (centres undefined)	?
COC(=O)c1c(NC(=O)c2cc3nc(-c4ccc(Br)cc4)cc(C(F)(F)F)n3n2)sc2c1CCCC2	-2%
CCCc1nn2c(=O)cc(COC(=O)c3ccccc3NC(=O)COc3ccccc3)nc2s1	6%
CN(C)C(=O)Cn1nc(-c2ccccc2)c2ccccc2c1=O	-1%
Cc1ccc(S(=O)(=O)N2[C@@H](c3ccc(Br)cc3)C(C(=O)O)=C[C@H]2C(C)(C)C)cc1	1%
CCS(=O)(=O)c1ccc2c(c1)N(S(C)(=O)=O)CC(C(=O)NN)O2 (centres undefined)	5%
CCOC(=O)C[C@H]1c2ccccc2S(=O)(=O)N1C1CC1	-3%
CC(C)Cn1c(CN2CCN(c3ccccc3F)CC2)nc2c1c(=O)[nH]c(=O)n2C	9%
O=C(OCc1ccco1)c1ccc2c(c1)N(Cc1ccc([N+](=O)[O-])cc1)C(=O)c1ccccc1S2	6%
O=C(COC(=O)c1cnccn1)NCCc1ccccc1	-8%
CCCc1nn2c(=O)cc(CSCC(=O)Nc3cccc(OC)c3)nc2s1	-4%
Clc1ccc(-c2nc3ccccn3c2CN2CCCCC2)cc1	-10%
COc1ccc(NC(=O)CNC(=O)Cc2ccccc2)cc1	-14%
COc1cc(CCC(=O)OCC(=O)N(CC(C)C)C2CCS(=O)(=O)C2)cc(OC)c1OC (centres undefined)	-12%

Other records:
SMILES	VDR inhibitor
CC(C)n1nc(C(=O)OCC(=O)c2c[nH]c3ccccc23)c2ccccc2c1=O	19%
COCC(C)NC(C(=O)Nc1cccc(C(C)=O)c1)c1ccccc1 (centres undefined)	8%
CC(C)NC(=O)c1ccc(NC(=O)N2CCCCc3ccccc32)cc1	-5%
Cc1cc(=O)[nH]c(SCC(=O)Nc2ccc(C)c(S(=O)(=O)N3CCCCC3)c2)n1	-6%
O=C(COC(=O)C12CC3CC(CC(C3)C1)C2)NNC(=O)c1ccccc1	2%
CC(C)n1c(SCC(=O)N2CCCCC2)nc2c1c(=O)n(C)c(=O)n2C	6%
Cc1ccc(C(=O)COC(=O)COc2ccccc2C)cc1	-13%
COc1ccc(/C(N)=N/OC(=O)CN(C)S(=O)(=O)c2ccc(C)cc2)cc1	9%
O=C(O)c1ccc(N2CC3CC(C2)c2cccc(=O)n2C3)c(NS(=O)(=O)c2cccc(C(F)(F)F)c2)c1 (centres undefined)	-27%
COc1ccc(N2CCN(S(=O)(=O)c3ccc4oc(=O)c5ncn(C)c5c4c3)CC2)cc1	20%
N#Cc1c(-c2ccc3c(c2)OCO3)csc1N	-18%
COCCCNC(=O)CCc1c(C)nc2c(-c3ccc(F)cc3)c(C)nn2c1C	-3%
Cc1ccc(C)c2c1[nH]c1ccc([N+](=O)[O-])cc12	-5%
O=C1C2C(C(=O)N1/N=C/c1cccc([N+](=O)[O-])c1)C1C=CC2C12CC2 (centres undefined)	-16%
CCN1CCC(O)(C(C(=O)O)c2ccccc2)CC1 (centres undefined)	3%
COCCNC(=O)C1CCC(CNS(=O)(=O)c2ccccc2)CC1 (centres undefined)	5%
COc1ccccc1NS(=O)(=O)c1ccc(C)c(C(=O)NCC(c2cccs2)N2CCOCC2)c1 (centres undefined)	-13%
Cc1cccc(NNC(=O)C(=O)NNc2cccc(C)c2)c1	-19%
CCOc1ccc(CNc2ccc(CNc3ncn[nH]3)cc2)cc1	4%
CCOC(=O)C1CCCN(c2c(NCCc3ccc(Cl)cc3)c(=O)c2=O)C1 (centres undefined)	-9%
Cc1ccc(C(=O)NCCNC(=O)Cc2ccccc2)cn1	-6%
COc1ccccc1NC(=S)NCCC(c1ccccc1)c1ccccc1	-27%
COc1ccccc1-c1ccc(NC2CCCCC2)nn1	0%
COc1ccc([N+](=O)[O-])cc1N(CC(O)Cn1nnc2ccccc21)S(=O)(=O)c1ccc(C)cc1 (centres undefined)	15%
Cc1cc(C)n(S(=O)(=O)c2ccc(C(C)(C)C)cc2)n1	-7%

Next section.
SMILES	VDR inhibitor
CCCCNC(=O)Nc1nc2ccccc2s1	-8%
Oc1ccc(Br)cc1C=Nc1ccc(Cl)cc1	-4%
CCc1cc(=O)oc2cc(OCC(=O)N3CCC(C(N)=O)CC3)ccc12	-4%
C[C@@H]1CN([C@@H](C)CO)C(=O)Cc2cc(NC(=O)Nc3ccc(F)cc3)ccc2O[C@@H]1CN(C)Cc1ccc(Cl)c(Cl)c1	-8%
O=C(CC(=O)c1c(F)cccc1Cl)c1ccccc1O	-28%
COc1ccc(NC(=O)CSc2nc(O)cc(=O)[nH]2)c(OC)c1	?
COc1cc(OC)cc(-c2sc3ccc(OC)cc3c2-c2ccc(OCCN3CCCCC3)cc2)c1	-3%
Cc1cccc(NC(=O)CN2C(=O)NC(C)(c3ccc4c(c3)OCO4)C2=O)c1 (centres undefined)	-1%
O=C(Nc1ccccc1C(F)(F)F)C(O)(c1ccccc1)C1CCCCC1 (centres undefined)	-11%
O=S(=O)(c1ccc(N=C2NN=C(c3cc(F)ccc3F)CS2)cc1)N1CCOCC1	1.6µM*
O=C(c1cccc(N2CCCC2=O)c1)N1CCN(c2ccccc2)CC1	-5%
COc1cccc(NC(=O)CN2C(=O)c3ccccc3Sc3ncccc32)c1	11%
COC(=O)C1=C(C)OC(N)=C(C#N)C1c1cc2cc(C)ccc2nc1Cl (centres undefined)	0%
CC(=O)Nc1ccc(S(=O)(=O)NCCNC(=O)c2ccccc2F)cc1	-3%
CCCn1c(CC)nc([N+](=O)[O-])c1S(=O)(=O)c1ccccc1	?
CCc1cccc(C)c1NC(=S)NCCc1c(C)[nH]c2ccc(C)cc12	1%
CCn1c2ccccc2c2nnc(N3CCN(c4cc(C)ccc4C)CC3)nc21	20%
Cc1ccc(Cl)cc1N1CCN(S(=O)(=O)c2cnc[nH]2)CC1	-10%
CC1CCN(C(c2cccs2)c2nnnn2Cc2ccccc2)CC1 (centres undefined)	8%
CC(=O)Nc1ccc2nc3ccccc3nc2c1	-15%

A stretch from further up:
SMILES	VDR inhibitor
O=C(CC(=O)c1c(F)cccc1Cl)c1ccccc1O	-28%
COc1ccc(NC(=O)CSc2nc(O)cc(=O)[nH]2)c(OC)c1	?
COc1cc(OC)cc(-c2sc3ccc(OC)cc3c2-c2ccc(OCCN3CCCCC3)cc2)c1	-3%
Cc1cccc(NC(=O)CN2C(=O)NC(C)(c3ccc4c(c3)OCO4)C2=O)c1 (centres undefined)	-1%
O=C(Nc1ccccc1C(F)(F)F)C(O)(c1ccccc1)C1CCCCC1 (centres undefined)	-11%
O=S(=O)(c1ccc(N=C2NN=C(c3cc(F)ccc3F)CS2)cc1)N1CCOCC1	1.6µM*
O=C(c1cccc(N2CCCC2=O)c1)N1CCN(c2ccccc2)CC1	-5%

6 compounds from above, ordered by their value in VDR inhibitor, largest number first:
SMILES	VDR inhibitor
CCc1cccc(C)c1NC(=S)NCCc1c(C)[nH]c2ccc(C)cc12	1%
Cc1cccc(NC(=O)CN2C(=O)NC(C)(c3ccc4c(c3)OCO4)C2=O)c1 (centres undefined)	-1%
CC(=O)Nc1ccc(S(=O)(=O)NCCNC(=O)c2ccccc2F)cc1	-3%
CCc1cc(=O)oc2cc(OCC(=O)N3CCC(C(N)=O)CC3)ccc12	-4%
CCCCNC(=O)Nc1nc2ccccc2s1	-8%
Cc1ccc(Cl)cc1N1CCN(S(=O)(=O)c2cnc[nH]2)CC1	-10%
